AF4-AF9 inh – MLL-AF4/AF9 protein interaction inhibition | P42568 | AlphaScreen, biotin-AF4 peptide binding to FLAG-AF9 | inhibition, % at 10 µM | 350,000 compounds, 0.47% hits;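 active = every replicate reaching a set inhibition limit, whatever the replicate mean, cut at about 25% in these data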;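 note: 0% = plate neutral control median and 100% = total signal loss; the record names both 10 and 1 µM as test concentration; the first replicate is given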
Target sequence (P42568 whole entry, looked up): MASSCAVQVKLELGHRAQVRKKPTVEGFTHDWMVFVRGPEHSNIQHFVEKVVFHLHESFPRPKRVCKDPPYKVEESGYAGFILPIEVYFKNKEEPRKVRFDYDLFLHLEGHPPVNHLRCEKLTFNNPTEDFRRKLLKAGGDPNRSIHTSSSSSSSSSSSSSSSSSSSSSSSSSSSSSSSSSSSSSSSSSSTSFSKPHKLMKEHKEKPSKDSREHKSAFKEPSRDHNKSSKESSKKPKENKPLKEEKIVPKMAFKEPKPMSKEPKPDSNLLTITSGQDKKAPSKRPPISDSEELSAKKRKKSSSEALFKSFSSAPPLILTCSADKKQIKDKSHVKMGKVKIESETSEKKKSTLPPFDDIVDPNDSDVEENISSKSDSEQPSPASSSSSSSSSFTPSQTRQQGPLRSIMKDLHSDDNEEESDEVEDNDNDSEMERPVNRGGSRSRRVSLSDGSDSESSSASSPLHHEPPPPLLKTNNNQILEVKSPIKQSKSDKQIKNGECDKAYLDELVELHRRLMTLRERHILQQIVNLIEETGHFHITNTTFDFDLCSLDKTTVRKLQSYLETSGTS
Numbers without * were called inactive; & = joins results of further samples.

SMILES	AF4-AF9 inh
CS(=O)(=O)Nc1cccc(-c2ccc3nncn3c2)c1	0.3
Cc1cnc(CNC(=O)C2(C)CCCN2CC(C)C)cn1 (stereo not given)	-2.7
O=C(C[C@@H]1C[C@H]2c3cc(NC(=O)NC4CCCC4)ccc3O[C@H]2[C@@H](CO)O1)NCc1ccc2c(c1)OCO2	-0.9
C/C=C/c1ccc([C@H]2[C@@H](CO)N(C(=O)CC3CC3)[C@H]2CNC(C)C)cc1	-4.0
CCC(=O)N1[C@@H](CO)[C@@H]2c3ccccc3N(C(=O)Nc3ccccc3Cl)C[C@@H]21	-2.5
CC(C)NC(=O)Nc1ccc2c(c1)C(=O)N([C@H](C)CO)C[C@H](C)[C@@H](CN(C)C(=O)Cc1ccccc1)OCCCC[C@@H](C)O2	-3.1
CCNC(=O)C1(C)CCN(C(=O)c2c(F)ccc(C)c2F)C1 (stereo not given)	-0.2
CN(C)C(=O)c1cccc(-c2ccc([C@H]3[C@@H](CO)N4CCCCN(C(=O)C5CCC5)C[C@H]34)cc2)c1	-1.9
Cc1cccc(C)c1-n1nnnc1C(c1ccnc2ccccc12)N(C)Cc1ccc(Cl)c(Cl)c1 (stereo not given)	-1.7
COc1ccc(S(=O)(=O)Nc2ccc3c(c2)C(=O)N([C@@H](C)CO)C[C@@H](C)[C@@H](CN(C)S(=O)(=O)c2ccc(OC)cc2)O3)cc1	1.4
CC(C)NC(=O)Nc1ccc2c(c1)C(=O)N([C@H](C)CO)C[C@@H](C)[C@H](CN(C)C(=O)CCCN(C)C)OCCCC[C@@H](C)O2	4.7
C[C@H]1CN([C@@H](C)CO)S(=O)(=O)c2ccc(C#Cc3ccccc3)cc2O[C@H]1CN(C)C(=O)Nc1ccc2c(c1)OCO2	5.9
Cc1ccccc1S(=O)(=O)N1[C@@H](C#N)[C@@H](c2ccc(C#CC3CCCCC3)cc2)[C@@H]1CO	0.5
C[C@H]1CN([C@@H](C)CO)C(=O)c2cccc(N(C)C)c2O[C@H]1CN(C)C(=O)Nc1ccccc1	-2.4
CN(C)C(=O)[C@@H]1[C@@H](CO)[C@@H]2Cn3c(cccc3=O)[C@H]1N2CC1CCCC1	-1.6
Cc1noc(C)c1NC(=O)Nc1ccc2c(c1)C(=O)N([C@H](C)CO)C[C@@H](C)[C@H](CN(C)C(=O)Nc1cccc3ccccc13)OCCCC[C@H](C)O2	-0.2
Cc1noc(C)c1S(=O)(=O)N(C)C[C@@H]1OCCCC[C@H](C)Oc2ccc(N(C)C)cc2C(=O)N([C@H](C)CO)C[C@@H]1C	4.1
Cc1cc(C(=O)Nc2ccc3c(c2)C(=O)N(C)[C@H]2CC[C@H](CC(=O)NCc4ccc(-c5ccccc5)cc4)O[C@@H]2CO3)no1	0.0
CC1=C(C(=O)N(C(C)C)C(C)C)CC(CC(=O)NCc2cccc3ccccc23)C(=O)N1Cc1ccc(F)cc1 (stereo not given)	-0.6
CCCN(C)C[C@H]1Oc2cc(C#Cc3ccccc3)ccc2S(=O)(=O)N([C@H](C)CO)C[C@@H]1C	1.0

Reprinted at random: 2 compounds from above, in no set order.
SMILES	AF4-AF9 inh
Cc1cc(C(=O)Nc2ccc3c(c2)C(=O)N(C)[C@H]2CC[C@H](CC(=O)NCc4ccc(-c5ccccc5)cc4)O[C@@H]2CO3)no1	0.0
CCCN(C)C[C@H]1Oc2cc(C#Cc3ccccc3)ccc2S(=O)(=O)N([C@H](C)CO)C[C@@H]1C	1.0

(further entries)
SMILES	AF4-AF9 inh
O=C(NC(CSC(=O)c1ccccc1)C(=O)O)OCc1ccccc1 (stereo not given)	-0.2
COCC(=O)N1[C@@H]2CNc3ccccc3[C@@H]2[C@@H]1CO	-1.4
C[C@H](O)C#Cc1ccc2c(c1)O[C@H](CN(C)Cc1ccccn1)[C@@H](C)CN([C@H](C)CO)S2(=O)=O	1.2
COCC#Cc1ccc([C@@H]2[C@@H](CO)N3C(=O)CN(C(=O)Nc4ccc(F)cc4)C[C@H]23)cc1	-3.4
C[C@H](CO)N1C[C@H](C)[C@@H](CN(C)C(=O)Nc2ccc3c(c2)OCO3)Oc2cc(C#Cc3ccccc3)ccc2S1(=O)=O	6.5
C[C@H]1CN([C@@H](C)CO)S(=O)(=O)c2ccc(C#CC(C)(C)O)cc2O[C@H]1CN(C)CC1CC1	-0.8
C[C@H]1CN([C@@H](C)CO)C(=O)c2cc(/C=C/c3ccccc3)cnc2O[C@@H]1CN(C)C(=O)CN(C)C	4.0
COc1ccc(NC(=O)N[C@@H]2CC[C@H](CCNC(=O)CCN3CCCCC3)O[C@@H]2CO)cc1	-1.1
CN1c2ccc(C3=CCCCC3)cc2[C@H]2[C@H](CCN2C(=O)C2CCCC2)[C@@H]1CO	1.9
COc1ccccc1CN1[C@@H](CO)[C@@H]2c3ccccc3N(C(=O)c3ccc(F)cc3)C[C@@H]21	1.6
Cc1cccc(S(=O)(=O)N2C[C@H]3[C@@H](c4ccccc42)[C@H](CO)N3C(=O)CC2CC2)c1	2.9
COc1ccc(CNC(=O)CCS(=O)(=O)c2ccc3nc(C)sc3c2)cc1	-18
C[C@H](CO)N1C[C@H](C)[C@H](CN(C)C(=O)Cc2ccccc2)Oc2cc(C#Cc3ccccc3F)ccc2S1(=O)=O	-7.8
O=C(C[C@H]1CC[C@@H]2NC[C@@H](O)COC[C@H]2O1)Nc1ccccc1	0.0
C[C@@H]1CN([C@H](C)CO)C(=O)Cc2cc(NC(=O)Nc3ccccc3)ccc2O[C@H]1CN(C)CC1CC1	0.4
CC(C)C(=O)N1CCC1(C)C(=O)Nc1cccc(Oc2ccccc2)c1 (stereo not given)	0.0
C[C@H](CO)N1C[C@H](C)[C@@H](CN(C)Cc2ccccc2)Oc2ccc(NC(=O)CCC(F)(F)F)cc2C1=O	-1.6
C[C@H]1CN([C@@H](C)CO)S(=O)(=O)c2ccc(-c3cccnc3)cc2O[C@@H]1CN(C)C(=O)c1cccc(F)c1	0.5
C[C@@H]1CN([C@@H](C)CO)C(=O)c2cc(C#CC3CC3)cnc2O[C@@H]1CN(C)C(=O)c1ccc(F)cc1	-3.2
CSc1ccc(CN2CCC2(C)C(=O)NCc2cccc(C(F)(F)F)c2)cc1 (stereo not given)	-0.2
C=C(C)[C@@H]1CC=C(CO)CC1	-2.8
N#Cc1ccccc1OCC(=O)Nc1cc(S(=O)(=O)N2CCCCC2)ccc1N1CCOCC1	3.4
COCC(=O)N1CC2(C1)[C@@H](c1ccc(-c3ccccc3)cc1)[C@H](CO)N2C(=O)COC	-0.4
O=C([C@H]1[C@H](CO)[C@H]2Cn3c(cccc3=O)[C@H]2N1C(=O)C1CCCCC1)N1CCOCC1	2.3
C[C@H](CO)N1C[C@H](C)[C@H](CN(C)Cc2ccc(C(=O)Nc3ccccc3N)cc2)Oc2c(NC(=O)C3CCOCC3)cccc2C1=O	3.0
COC(=O)c1ccc2nc(-c3cccc(Cl)c3)c(Cc3ccccc3C(F)(F)F)n2c1	-3.5
O=C(C[C@@H]1CC[C@@H]2[C@H](COC[C@H](O)CN2Cc2ccc(Cl)cc2)O1)Nc1nccs1	4.4
Cc1ccccc1-c1ccc([C@H]2[C@H]3CN(C(=O)c4ccc(F)cc4)CC(=O)N3[C@H]2CO)cc1	-5.3
C[C@H]1CN([C@@H](C)CO)C(=O)c2cc(NS(=O)(=O)c3ccccc3)ccc2O[C@H]1CN(C)C	-2.0
COC(=O)[C@@]1(Cc2ccc(F)cc2)[C@H]2c3cc(C(=O)N4CCCC4)n(Cc4ccc(C)o4)c3C[C@H]2CN1C(=O)c1ccccc1	8.8
C[C@@H]1CN([C@@H](C)CO)S(=O)(=O)c2ccc(-c3cncnc3)cc2O[C@H]1CN(C)CC1CC1	-1.3
C[C@H](O)C#Cc1ccc2c(c1)O[C@@H](CN(C)C(=O)CC1CC1)[C@H](C)CN([C@@H](C)CO)S2(=O)=O	1.2
COCC(=O)Nc1ccc2c(c1)C(=O)N(C)C[C@H](OC)[C@H](C)CN(C(=O)c1ccccc1)[C@H](C)CO2	3.0
N#C[C@@H]1[C@@H](c2ccc(C#CC3CC3)cc2)[C@H](CO)N1C(=O)Cc1ccccn1	0.9
COc1ccccc1S(=O)(=O)N[C@H]1CC[C@@H](CCNC(=O)C2CCCCC2)O[C@@H]1CO	0.1
COc1ccc(C#Cc2ccc3c(c2)O[C@H](CN(C)C(=O)CN2CCOCC2)[C@H](C)CN([C@@H](C)CO)S3(=O)=O)cc1	1.1
Cc1ccc(S(=O)(=O)Nc2ccc3c(c2)CC(=O)N([C@@H](C)CO)C[C@@H](C)[C@@H](CN(C)C)O3)cc1	1.7
O=C(C1CCOCC1)N1CC(=O)N2[C@H](C1)[C@H](c1ccc(Br)cc1)[C@@H]2CO	-2.8
Cc1ccc(NC(=O)C2(C)CCN2C(=O)Cc2ccc(C(C)C)cc2)cc1 (stereo not given)	1.5
COC(=O)[C@@]1(Cc2ccccc2)N=C(c2ccc(OCCCO)cc2)O[C@H]1c1ccccc1CN=[N+]=[N-]	10
CCOC(=O)[C@H]1[C@H]2COc3ccc(Br)cc3[C@H]2N2C(=O)CN(Cc3ccc(C)cc3)C(=O)[C@@]12C	2.6
Cc1ccc(S(=O)(=O)Nc2c(C)cc([N+](=O)[O-])cc2C)cc1	1.4
CN(C)CC(=O)N1[C@@H]2c3ccc(-c4ccccc4)c(=O)n3C[C@@H]2[C@@H](CO)[C@@H]1C(=O)NC1CCC1	-0.7
C[C@@H](NC(=O)C[C@@H]1C[C@@H]2c3cc(NC(=O)CN(C)C)ccc3O[C@@H]2[C@@H](CO)O1)c1ccccc1	-0.7
COc1ccc2c3c(n(C)c2c1)[C@H](CO)N(C(=O)Cc1ccccn1)CC31CN(CC2CCOCC2)C1	0.2
C[C@@H]1CN([C@H](C)CO)C(=O)c2cc(NC(=O)Cn3cnnn3)ccc2O[C@@H]1CN(C)C(=O)Nc1ccc(C(F)(F)F)cc1	-2.3
Cn1c(=O)c2cc(NC(=O)CCc3cccnc3)ccc2n1Cc1cccc(C(F)(F)F)c1	-3.2
OC[C@@H]1[C@H](c2ccc(-c3cccnc3)cc2)[C@H]2CN(CC3CCOCC3)CCCCN12	0.7
C[C@@H]1CN([C@H](C)CO)C(=O)CCCn2nncc2CO[C@@H]1CN(C)C(=O)Cc1ccccc1	0.7&-1.6&0.3
CCC(=O)Nc1ccc2c(c1)OC[C@@H](C)N(C(=O)c1cnccn1)C[C@H](C)[C@H](OC)CN(C)C2=O	-1.2
CCC(=O)N[C@@H]1C[C@@H]2O[C@H](CO)CC[C@@H]2O[C@@H]1CCc1ccc(-c2cccc(OC)c2)cc1	0.7
C[C@@H]1CN([C@H](C)CO)C(=O)Cc2cc(NS(=O)(=O)c3cn(C)cn3)ccc2O[C@H]1CN(C)Cc1ccc(C(=O)Nc2ccccc2N)cc1	0.8
CCCCNC(=O)C1(C)CCN1C(=O)c1ccc(F)cc1Cl (stereo not given)	-0.9
COc1cc2nc3n(c(=O)c2cc1OC)-c1cc2ccccc2cc1C(=O)NC3Cc1ccccc1 (stereo not given)	1.7
COc1ccc(S(=O)(=O)Nc2cccc3c2O[C@@H](CN(C)S(=O)(=O)c2cn(C)cn2)[C@@H](C)CN([C@@H](C)CO)C3=O)cc1	-0.1
C[C@@H]1CN([C@H](C)CO)C(=O)c2cc(N(C)C)ccc2O[C@@H]1CN(C)S(=O)(=O)c1ccc(Cl)cc1	0.3
C[C@@H]1CN([C@H](C)CO)C(=O)c2cc(NS(=O)(=O)c3ccc(F)cc3)ccc2O[C@@H](C)CCCCO[C@H]1CN(C)Cc1ccc(C(F)(F)F)cc1	-0.4
CO[C@@H]1CN(C)C(=O)c2cc(NC(=O)NC3CCCCC3)ccc2OC[C@H](C)NC[C@H]1C	-0.9
C[C@H](CO)N1C[C@H](C)[C@@H](CN(C)C)Oc2ccc(NS(=O)(=O)c3ccc(F)cc3)cc2CC1=O	-0.9
OC[C@H]1[C@@H]2c3ccccc3NC[C@@H]2N1Cc1ccccc1Cl	3.6
Additional structures:
SMILES	AF4-AF9 inh
CO[C@H]1CN(C)C(=O)c2ccc(NC(=O)Cc3ccccc3)cc2OC[C@H](C)N(CC2CC2)C[C@@H]1C	-2.9
COc1ccc2c3c([nH]c2c1)[C@H](CO)N(C(=O)C1CCC1)CC31CCN(C(=O)c2ccccn2)CC1	-5.9
CCCC#Cc1ccc([C@@H]2[C@H](CO)N3CCCCN(CC4CCOCC4)C[C@@H]23)cc1	6.4
O=C(Cc1ccccn1)NCC[C@@H]1CC[C@H](NS(=O)(=O)c2ccc(Cl)cc2)[C@H](CO)O1	21
C[C@@H]1CN([C@@H](C)CO)C(=O)c2cccc(NC(=O)c3ccc(-c4nccs4)cc3)c2O[C@@H]1CN(C)S(=O)(=O)c1cccs1	-1.2
COc1ccccc1NC(=O)N(C)C[C@@H]1Oc2ncc(C#CCN(C)C)cc2C(=O)N([C@@H](C)CO)C[C@H]1C	-6.3
O=C(C[C@@H]1C=C[C@@H](NS(=O)(=O)c2cccc(F)c2)[C@@H](CO)O1)NCc1ccc2c(c1)OCO2	1.9
CCCNC(=O)N1CC2(CN(CC3CCCC3)C2)c2c(n(C)c3cc(OC)ccc23)[C@H]1CO	28*

Part of the list above, comma-delimited.
mol,AF4-AF9 inh
CO[C@H]1CN(C)C(=O)c2ccc(NC(=O)Cc3ccccc3)cc2OC[C@H](C)N(CC2CC2)C[C@@H]1C,-2.9
CCCNC(=O)N1CC2(CN(CC3CCCC3)C2)c2c(n(C)c3cc(OC)ccc23)[C@H]1CO,28*
COc1ccc2c3c([nH]c2c1)[C@H](CO)N(C(=O)C1CCC1)CC31CCN(C(=O)c2ccccn2)CC1,-5.9
O=C(C[C@@H]1C=C[C@@H](NS(=O)(=O)c2cccc(F)c2)[C@@H](CO)O1)NCc1ccc2c(c1)OCO2,1.9
C[C@@H]1CN([C@@H](C)CO)C(=O)c2cccc(NC(=O)c3ccc(-c4nccs4)cc3)c2O[C@@H]1CN(C)S(=O)(=O)c1cccs1,-1.2
O=C(Cc1ccccn1)NCC[C@@H]1CC[C@H](NS(=O)(=O)c2ccc(Cl)cc2)[C@H](CO)O1,21
CCCC#Cc1ccc([C@@H]2[C@H](CO)N3CCCCN(CC4CCOCC4)C[C@@H]23)cc1,6.4

Source: PubChem BioAssay

Some of the compounds tested; the hit share may differ from the screen's.
